TRPML1 ag: activates the human TRPML1 channel | TRPML1-expressing cells, Ca2+ dye fluorescence, FDSS; host cell line not named in the record; reference of the full effect not given here | 0.12% of 410,000 active | activation, % (test concentration not listed); in the data active = activation above about 50%; inconclusive = about 30% to 50%; inactive = below about 30%; further: 0% is about no effect; the text of the record puts the active cut at 80%
Target sequence (Q9GZU1 whole entry, looked up): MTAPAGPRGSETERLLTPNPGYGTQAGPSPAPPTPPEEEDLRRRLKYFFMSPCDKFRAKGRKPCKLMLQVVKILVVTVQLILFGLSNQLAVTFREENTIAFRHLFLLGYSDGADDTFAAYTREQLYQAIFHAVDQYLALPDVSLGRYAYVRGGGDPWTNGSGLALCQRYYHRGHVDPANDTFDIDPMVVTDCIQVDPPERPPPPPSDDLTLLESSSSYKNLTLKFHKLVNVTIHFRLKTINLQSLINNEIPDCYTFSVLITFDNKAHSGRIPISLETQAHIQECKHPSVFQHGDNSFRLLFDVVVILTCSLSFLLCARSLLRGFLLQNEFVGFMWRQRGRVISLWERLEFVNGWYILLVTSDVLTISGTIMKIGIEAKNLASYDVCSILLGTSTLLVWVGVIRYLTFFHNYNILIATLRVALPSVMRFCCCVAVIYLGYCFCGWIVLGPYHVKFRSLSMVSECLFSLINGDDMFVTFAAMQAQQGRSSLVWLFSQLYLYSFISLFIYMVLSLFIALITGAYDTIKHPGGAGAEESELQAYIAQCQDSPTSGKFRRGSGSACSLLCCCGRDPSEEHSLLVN
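TRPML1-DL cells, Tet-induced overnight (~16 h, 37 degrees C), loaded 45-90 min at room temperature with Ca8 no-wash calcium dye plus quencher. FDSS fluorescence: 10 s baseline, compound pin-transfer, 110 s agonist read, then EC80 54-4 (4uM final) and 110 s antagonist read.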
Six1-Eya2 inh: Six1/Eya2 interaction inhibition | AlphaScreen GST-Six1/His-Eya2 binding, biochemical; hits give low values; control for the full effect not named in the record | activity change, % (no concentration beside the values) | 0.56% of 360,000 active | AID 651725; in the data active = activity change below about -65%; inconclusive = about -30% to -65%; inactive = above about -30%; further: on the % scale 0 is the no-effect control and ±100 the full control effect; compound concentration not given in the record
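Compounds are tested against tagged Six1 and Eya2 proteins bridged by glutathione donor and nickel acceptor beads; after a one-hour incubation at 37 °C without light, AlphaScreen emission is recorded.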
D2 ag: activates the human D2 dopamine receptor; P14416; DiscoveRx PathHunter D2 beta-arrestin, luminescence, 90 min; 100% = 57 uM dopamine signal; activation, % (test concentration not listed); 0.084% of 360,000 active; in the data active = activation above about 40%; inconclusive = about 15% to 40%; inactive = below about 15%; further: compound concentration not given in the record; the text of the record calls up to 30% inactive
Target sequence (P14416 whole entry, looked up): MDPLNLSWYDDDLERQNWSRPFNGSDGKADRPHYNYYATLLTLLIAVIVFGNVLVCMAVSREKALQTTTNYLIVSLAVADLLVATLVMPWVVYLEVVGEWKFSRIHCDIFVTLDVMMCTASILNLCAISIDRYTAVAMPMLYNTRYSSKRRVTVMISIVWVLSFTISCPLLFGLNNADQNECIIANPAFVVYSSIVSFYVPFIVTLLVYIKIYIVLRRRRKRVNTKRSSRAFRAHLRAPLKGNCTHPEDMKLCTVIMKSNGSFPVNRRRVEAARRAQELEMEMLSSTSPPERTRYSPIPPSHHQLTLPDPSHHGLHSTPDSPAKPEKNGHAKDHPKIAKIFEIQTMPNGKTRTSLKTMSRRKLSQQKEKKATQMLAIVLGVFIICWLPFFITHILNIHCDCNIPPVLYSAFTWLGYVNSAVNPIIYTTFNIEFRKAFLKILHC
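DiscoveRx PathHunter D2 beta-arrestin cells (2,100/well) attached overnight, then compound-stimulated 90 min at 37 C in HBSS/10 mM HEPES/0.1% Tween-20 buffer; beta-galactosidase complementation read by luminescence after 1 h at ambient temperature. Dopamine 57 uM final (EC100) as control.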
D2 potentiator: potentiates the human D2 dopamine receptor allosterically | P14416 | DiscoveRx D2 beta-arrestin cells, luminescence, 90 min; 100% = 57 uM dopamine signal | potentiation, % (concentration not given with the values) | 0.23% of 360,000 active | AID 624464; active = potentiation of 50% or more; inconclusive = 30% to 50%; inactive = 30% or less;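 further: compound concentration not given in the record; tested on top of an EC20 dose of dopamine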
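PathHunter D2 cells, attached overnight at 37 deg C, received compound in DMSO plus dopamine at EC20 (50 nM final) for 90 min at 37 deg C. Beta-arrestin recruitment was read as luminescence after 1 h with detection reagent at ambient temperature.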
PINK1 expr mod: modulators of PINK1 expression | Potency, µM (series often up to 76.6 µM), without a hit: top-dose activation (PINK1 increase), usual class: activators | PINK1 immunofluorescence, high-content cytometry, 24 h | AID 624263 | 0.2% of 410,000 active; active = well fitted activation curve with a large enough effect; inconclusive = small, poorly fitted or top-dose-only effect; inactive = flat fitted curve, though single readings scatter; cell line not stated here;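 further: potency means the concentration at half of the fitted maximal effect; % of control where 0% means no effect; nearly all actives have a fitted effect of over 65% in size; a mitochondrial uncoupler was the plate control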
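Stable cell line, 250 cells/well, 12 h attachment; compounds pinned at 5 concentrations, 24 h; CCCP control. Fixed with nuclear dye, primary antibodies 12 h at 10 degrees C, secondary plus cell stain; laser-scanning cytometer read.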
CtBP-E1A inh: blocks the CtBP interaction with E1A; AlphaScreen GST-E1A/His-CtBP binding, 1536-well; hits give low values; control for the full effect not named in the record; activity change, % (no concentration beside the values); 0.49% of 340,000 active; AID 651724; in the data active means activity change below about -65%; inconclusive means about -30% to -65%; inactive means above about -30%; further: on the % scale 0 is the no-effect control and ±100 the full control effect; compound concentration not given in the record
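Steps: dispense buffer (Tris pH 8.0, NaCl 300 mM, TCEP 1 mM, BSA, Tween 20); add 5X protein mix (GST-E1A, His-CtBP, 125 nM each); pin 23 nL compound; 2 h at 37 °C, dark; add 5X beads (50 ug/mL); 1 h; read.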
* hit, by the source's call; ? = inconclusive; nt = not tested or not shown; & = joins results of further samples; [ ] = dose if it differs, or a comment.

1. O=C(CSc1ccc(-c2cccnc2)nn1)Nc1ccccc1C(F)(F)F
2. COc1ccc(OC)c(CN(CCCN2CCOCC2)S(=O)(=O)c2ccc(NC(C)=O)cc2)c1
3. Cc1occc1C(=O)Nc1ccc2c(c1)CCC2
4. CCOC(=O)C1=C(C)NC(=O)NC1c1cccs1 (configuration not stated)
5. O=C(NC(=S)Nc1ccc(CN2CCOCC2)cc1)c1ccc([N+](=O)[O-])cc1Cl
6. CCC(c1nnc(SCc2nc3ccccc3s2)n1Cc1ccccc1)N(C)C (configuration not stated)
7. CCC(C)NC(=O)Cn1cnc([N+](=O)[O-])c1 (configuration not stated)
8. COc1ccccc1CN1CCNC(=O)C1CC(=O)N(C)Cc1cnccn1 (configuration not stated)

Compound,1,2,3,4,5,6,7,8
TRPML1 ag,-0.7,0.2,1.3,0.0,0.1,0.0,1.7,0.7
Six1-Eya2 inh,0,-1,-1,11,-2,-7,5,3
D2 ag,-0.2,-0.6,-2.6,1.4,1.3,-0.3,-3.0,-4.3
D2 potentiator,10,-22,-15,-4,-16,-18,-4,2
PINK1 expr mod,0.1%,-1.9%,6.6%[38.3 µM],0.2%,1.2%,-1.8%,-1.6%,1.0%
CtBP-E1A inh,0,0,-2,1,-20,-5,1,0

9. COc1cccc(CNC(=O)CN(c2ccc(C(C)C)cc2)S(=O)(=O)c2c(C)noc2C)c1
10. Cc1ccnc(NS(=O)(=O)c2ccc(NC(=O)c3snnc3C)cc2)n1
11. CN(c1ccc(OCC(=O)Nc2cc(Cl)ccc2C(=O)O)cc1)S(=O)(=O)c1ccc(F)cc1
12. O=C(c1ccc(S(=O)(=O)Nc2ccccc2F)cc1)N1CCCC1
13. O=S(=O)(c1ccccc1S(=O)(=O)N1CCCCC1)N1CCCCC1
14. CC(=O)Nc1c2c(nn1-c1ccccc1C)CSC2
15. CCOC(=O)N1CCC(Nc2c(NCCCOC)c(=O)c2=O)CC1
16. CC(CC(=O)Nc1cccc(Cl)c1)c1ccccc1 (configuration not stated)

Compound,9,10,11,12,13,14,15,16
TRPML1 ag,4.3&-0.8,-0.4,2.7,1.1,0.6,0.7,0.3,3.6
Six1-Eya2 inh,11,7,-10,-3,-5,1,28,12
D2 ag,-0.6,-1.4,0.6,-1.5,-3.1,-2.3,-0.7,-4.1
D2 potentiator,-3,-6,-7,8,-3,-4,3,-18
PINK1 expr mod,2.5%&0.3%,1.9%,-1.3%,3.4%,4.7%[38.3 µM],-0.3%,1.5%[38.3 µM],-1.8%
CtBP-E1A inh,nt,-5,7,7,-8,nt,48,20

17. CCc1ccc(CN2CCC(n3nccc3NC(=O)C3CCCC3)CC2)cc1
18. CCCn1c(C(C)Nc2nc(C)cs2)nc2cc(Cl)c(Cl)cc21 (configuration not stated)
19. O=C(O)C(=O)Nc1ncn[nH]1
20. COc1ccc(C#Cc2c(-c3ccccc3)n(C)c3ccccc23)cc1
21. O=S(=O)(Nc1ncccn1)c1ccc(NC(=S)NCCc2ccccc2)cc1
22. CCCCC[n+]1ccn(C2=C([O-])c3ccccc3C(=O)/C2=N\S(=O)(=O)c2ccc(Cl)cc2)c1
23. COc1ccccc1CN1CC(C(=O)NCc2cccc(C)n2)CCC1=O (configuration not stated)
24. CN(C)c1ccc(C2CC(=O)NC3=C2C(=O)CC(C)(C)C3)cc1 (configuration not stated)

Compound,17,18,19,20,21,22,23,24
TRPML1 ag,0.9,0.6,-0.8,2.2,0.7,3.5,-0.7,0.9
Six1-Eya2 inh,0,-16,-7,51,-10,-5,1,3
D2 ag,-5.5,-0.2,-2.8,-0.6,2.1,2.2,-4.0,-1.3
D2 potentiator,-12,-30,2,-8,-2,9,-7,-7
PINK1 expr mod,-1.2%,4.4%,0.8%,4.1%,0.1%,0.1%,-1.7%,1.1%[38.3 µM]
CtBP-E1A inh,5,-10,2,31,-14,-8,2,8

25. C#CCOCCOCCOCCNc1nc(N2CCOCC2)nc(N2CCN(C(=O)Cn3cc(CCCCN)nn3)CC2)n1
26. CC(C)N(C(=O)c1sc2cc([N+](=O)[O-])ccc2c1Cl)C(C)C
27. OC(c1ccccc1)c1nc2ccccc2s1 (configuration not stated)
28. Cc1cccc(NC(=O)C(CCC(N)=O)NC(=O)OCc2ccccc2)c1 (configuration not stated)
29. Cc1noc(C)c1C(=O)N1CCN(c2cccc(Cl)c2)CC1
30. COc1ccc(S(=O)(=O)N2CCOCC2)cc1C(=O)NCC(c1ccco1)N1CCCC1 (configuration not stated)
31. Cc1ccc(-c2nc3ccccc3[nH]2)cc1NC(=O)c1sc2cc(Cl)ccc2c1Cl
32. O=C(Nc1ccc(F)cc1)C1CCN(S(=O)(=O)c2cccc3nonc23)CC1

Compound,25,26,27,28,29,30,31,32
TRPML1 ag,-0.4,-0.6,-0.4,-0.5,-0.1,1.1,1.1,-0.1
Six1-Eya2 inh,4,-19,9,-7,3,2,1,5
D2 ag,-2.6,-1.9,0.3,-0.6,-6.2,-1.1,-1.2,7.8
D2 potentiator,-7,9,10,-12,-2,-5,-17,1
PINK1 expr mod,-0.2%,2.2%,0.8%,0.3%,0.6%,1.1%,1.4%,7.3%
CtBP-E1A inh,7,-16,2,0,-1,-4,-3,4

Another view of four compounds above.
item | molecule | TRPML1 ag | Six1-Eya2 inh | D2 ag | D2 potentiator | PINK1 expr mod | CtBP-E1A inh
31 | Cc1ccc(-c2nc3ccccc3[nH]2)cc1NC(=O)c1sc2cc(Cl)ccc2c1Cl | 1.1 | 1 | -1.2 | -17 | 1.4% | -3
28 | Cc1cccc(NC(=O)C(CCC(N)=O)NC(=O)OCc2ccccc2)c1 (configuration not stated) | -0.5 | -7 | -0.6 | -12 | 0.3% | 0
29 | Cc1noc(C)c1C(=O)N1CCN(c2cccc(Cl)c2)CC1 | -0.1 | 3 | -6.2 | -2 | 0.6% | -1
32 | O=C(Nc1ccc(F)cc1)C1CCN(S(=O)(=O)c2cccc3nonc23)CC1 | -0.1 | 5 | 7.8 | 1 | 7.3% | 4

Going on with the list:
33. O=C(NCc1ccccc1F)c1ccc2ccccc2n1
34. CCCCCCCCCNC(=O)[C@H](NC(=O)COc1ccccc1)[C@@H]1NC(C(=O)OC)C(C)(C)S1 (some centres not stated)
35. CCc1ccc(OCc2nnc(SCC(=O)NCC3CCCO3)n2C)cc1 (configuration not stated)
36. CCN(CC)C(=O)C1=C(C)N(Cc2ccccc2)C(=O)C(CC(=O)NCc2cccs2)C1 (configuration not stated)
37. Cc1ccc(CN(C(=O)COc2ccc(C)c(C)c2)C2CCS(=O)(=O)C2)o1 (configuration not stated)
38. Cc1cc(-c2n[nH]c(=S)n2/N=C/C=C/c2ccco2)n[nH]1
39. CCOC(=O)c1ccc(NC(=O)CSc2nnc(C3CCCCC3)n2C)cc1
40. COc1ccc(CCN=CC2=C(O)CC(C)(C)CC2=O)cc1

Compound,33,34,35,36,37,38,39,40
TRPML1 ag,-0.4,0.4&1.3,0.6,-0.7,0.1&-0.1,0.3,2.0,3.2
Six1-Eya2 inh,12,4,9,-2,-1,1,2,3
D2 ag,-1.5,1.0,-1.0,-7.3,1.5,1.4,-2.1,-1.9
D2 potentiator,-6,-1,4,7,2,-12,-5,9
PINK1 expr mod,1.3%,-0.1%,-0.6%,1.6%,0.1%&-0.9%,-0.4%,-0.4%,-2.4%
CtBP-E1A inh,2,4,-7,6,-2,-4,-9,6

Two entries drawn at random from the list so far, as already listed:
36. CCN(CC)C(=O)C1=C(C)N(Cc2ccccc2)C(=O)C(CC(=O)NCc2cccs2)C1 (configuration not stated)
28. Cc1cccc(NC(=O)C(CCC(N)=O)NC(=O)OCc2ccccc2)c1 (configuration not stated)

Compound,36,28
TRPML1 ag,-0.7,-0.5
Six1-Eya2 inh,-2,-7
D2 ag,-7.3,-0.6
D2 potentiator,7,-12
PINK1 expr mod,1.6%,0.3%
CtBP-E1A inh,6,0

The list goes on.
41. Oc1c(C=C2N=c3ccccc3=N2)sc(=S)n1-c1ccc(F)cc1
42. O=C(CCc1nc(-c2ccccc2)no1)NC1CCCCCC1
43. Cc1ccccc1S(=O)(=O)N1C[C@H]2CON(C)[C@H]2C[C@H]1c1cccc(N2CCOCC2)c1
44. COc1cc(C(=O)Nc2ccc(S(=O)(=O)Nc3nccc(C)n3)cc2)cc(OC)c1OC
45. COc1ccc(CCn2c(=S)[nH]c3cc(C(=O)NCc4ccco4)ccc3c2=O)cc1OC
46. COC(=O)N1C(=O)[C@](c2ccc(Cl)cc2)(C(C)C)N1C(=O)OC
47. Cc1ccc(NC(=O)C2(C)CCN2C(=O)C2(c3ccc(Cl)cc3)CC2)cc1 (configuration not stated)
48. CN(C)/C=C/C(=O)c1ccc2noc(-c3ccccc3)c2c1

Compound,41,42,43,44,45,46,47,48
TRPML1 ag,0.4&0.2,1.5,-0.7,3.3,0.7,0.6,-0.3,-0.6
Six1-Eya2 inh,-9&2,0,3,-3,1,4,1,-5
D2 ag,-3.6&-2.2,-1.2,0.5,-1.9,-2.9,-1.3,-2.9,?
D2 potentiator,1&-1,-2,nt,-2,10,-8,-3,23
PINK1 expr mod,2.9%&4.5%,2.4%,1.1%,1.5%,-2.2%,-0.1%,0.4%,1.1%
CtBP-E1A inh,0&17,0,7,1,2,0,4,-4

49. COc1ccc(NC(=O)CCCOc2ccc(Cl)c(C)c2)cc1S(=O)(=O)N1CCOCC1
50. COc1ccccc1NC(=O)CN1C(=O)COc2ccc(S(=O)(=O)N3CCC(C)CC3)cc21
51. Cc1cc(/C=C2\NC(=O)NC2=O)c(C)n1-c1cccnc1
52. Cc1oc(-c2ccccc2F)nc1CS(=O)(=O)CC(=O)N1CCOCC1
53. COCCNC(=O)C(c1ccc(C)o1)N(CC1CCCO1)C(=O)Cn1nnc2ccccc21 (configuration not stated)
54. CCc1sc(/C=C(/C#N)C(N)=S)cc1[N+](=O)[O-]
55. Cc1ccc(N2C(=O)CCC2(C(N)=O)c2ccccc2)cc1 (configuration not stated)
56. COc1ccccc1S(=O)(=O)N(C)C[C@H]1Oc2cc(Br)ccc2S(=O)(=O)N([C@@H](C)CO)C[C@H]1C

Compound,49,50,51,52,53,54,55,56
TRPML1 ag,0.6,-0.7,0.7,-0.1,-0.5,0.6,-0.4,0.1
Six1-Eya2 inh,0,1,-8,5,-2,-7,3,-2
D2 ag,2.3,-1.4,1.9,-3.0,-0.9,9.3,-1.8,2.4
D2 potentiator,-5,-5,-2,-3,-12,-5,-9,1
PINK1 expr mod,1.0%,2.7%,-2.4%,-0.6%,-1.7%,0.4%,0.8%,0.3%
CtBP-E1A inh,21,2,-1,-2,4,-2,6,-4

Source: PubChem (National Center for Advancing Translational Sciences (NCATS))
